Env fusion inh: inhibitors of HIV-1 Env-driven cell-cell fusion, primary screen, HeLa-JRFL effector, CEM21 target cells, luciferase; AID 651610, 2012; hit rate 1.1% among 360,000; inhibition, % at 12.3 µM;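 active = mean replicate inhibition score of at least 50 and every replicate individually at or above 50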;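 also: 0% = plate neutral controls and 100% = maraviroc near 300 nM; one replicate is shown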
UUG fidelity: modulators of yeast start codon fidelity, primary screen, whole organism, S. cerevisiae, single point, plate reader. S. cerevisiae UUG-firefly luciferase reporter, luminescence/redox ratio. activity score, % at 18.7 µM. hit rate 0.13% among 350,000;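 active = replicate mean at a twofold rise or more, about +100% in these data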;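 also: firefly luciferase made from a UUG start codon reports start codon fidelity; reporter light over untreated wells divided by growth signal over untreated wells; some hits fall short of that in this replicate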
* marks the source's active call; other numbers are inactive results; [ ] = remark or other dose. Only part of the results is shown; the hit share may differ from the screen's.

SMILES | Env fusion inh | UUG fidelity
C[C@@H]1CCCCO[C@@H](CN(C)C(=O)c2ccccc2)[C@H](C)CN([C@@H](C)CO)C(=O)c2cc(NS(=O)(=O)c3cn(C)cn3)ccc2O1 | 21[16.7 µM] | 1
O=C(Nc1ccc(F)cc1)N[C@H]1CC[C@@H](CCNS(=O)(=O)c2cccc(Cl)c2)O[C@H]1CO | 7[16.7 µM] | -2
CC(C)C(=O)Nc1ccc2c(c1)C(=O)N(C)[C@@H]1CC[C@H](CC(=O)NCCc3ccccc3)O[C@@H]1CO2 | -7[16.7 µM] | 9
O=C(N[C@H]1CC[C@H](CCn2cc(-c3ccccn3)nn2)O[C@H]1CO)c1cccnc1 | -10[16.7 µM] | -23
C[C@@H]1CCCCO[C@H](CN(C)C(=O)c2ccccc2)[C@@H](C)CN([C@H](C)CO)C(=O)c2cc(N(C)C)ccc2O1 | 7[16.7 µM] | -7
CCCN1C[C@H](C)[C@@H](OC)CN(C)C(=O)c2ccc(NS(C)(=O)=O)cc2OC[C@H]1C | 5[16.7 µM] | 6
C[C@H]1CCCCO[C@@H](CN(C)Cc2ccncc2)[C@@H](C)CN([C@@H](C)CO)C(=O)c2cc(NC(=O)Nc3cccc4ccccc34)ccc2O1 | 70*[16.7 µM] | 12
CNC[C@@H]1Oc2c(NC(=O)NC3CCCCC3)cccc2C(=O)N([C@@H](C)CO)C[C@@H]1C | -12[16.7 µM] | -1
Cc1noc(C)c1S(=O)(=O)Nc1ccc2c(c1)C(=O)N([C@H](C)CO)C[C@H](C)[C@H](CN(C)C(=O)c1ccccc1)OCCCC[C@@H](C)O2 | 3[16.7 µM] | 34
CO[C@H]1CN(C)C(=O)c2cc(NS(C)(=O)=O)ccc2OC[C@@H](C)N(C(=O)C2CCC2)C[C@H]1C | -2[16.7 µM] | -16
O=C(C[C@@H]1CC[C@H](NC(=O)C2CC2)[C@H](CO)O1)NC1CCC1 | 3[16.7 µM] | -13
CCCC#Cc1cnc2c(c1)C(=O)N([C@@H](C)CO)C[C@@H](C)[C@H](CN(C)Cc1ccc(F)cc1)O2 | -3[16.7 µM] | -12
C[C@@H]1CN([C@H](C)CO)C(=O)Cc2cc(NS(=O)(=O)c3ccc(Cl)cc3)ccc2O[C@@H]1CN(C)C(=O)Nc1ccc(C(F)(F)F)cc1 | -5[16.7 µM] | -1
COc1ccc(S(=O)(=O)N(C)C[C@@H]2Oc3ccc(NC(=O)CCN4CCOCC4)cc3CC(=O)N([C@@H](C)CO)C[C@@H]2C)cc1 | 1[16.7 µM] | 8
C[C@@H]1CCCCO[C@H](CN(C)C(=O)Nc2ccc3c(c2)OCO3)[C@@H](C)CN([C@H](C)CO)C(=O)c2cc(NS(=O)(=O)c3ccccc3)ccc2O1 | -2[16.7 µM] | 3
CN1C(=O)c2cc(NC(=O)C3CCCCC3)ccc2OC[C@@H]2O[C@@H](CC(=O)NCCc3ccncc3)CC[C@H]21 | -36[16.7 µM] | 2
O=C(C[C@H]1C[C@H]2c3cc(NC(=O)NC4CCCC4)ccc3O[C@H]2[C@H](CO)O1)NCC1CC1 | -15[16.7 µM] | -8
COc1ccc(NC(=O)N(C)C[C@@H]2Oc3c(NS(=O)(=O)c4ccc(Cl)cc4)cccc3C(=O)N([C@H](C)CO)C[C@@H]2C)cc1 | -59[16.7 µM] | -4
C[C@@H]1CN([C@@H](C)CO)C(=O)Cc2cc(NC(=O)C3CC3)ccc2O[C@H]1CN(C)Cc1ccc(-c2ccccc2)cc1 | 5[16.7 µM] | 24
C[C@H]1CN([C@@H](C)CO)C(=O)c2cc(-c3ccncc3)cnc2O[C@@H]1CN(C)Cc1ccc(Oc2ccccc2)cc1 | -14[16.7 µM] | -4
C[C@@H]1CCCCO[C@H](CN(C)S(C)(=O)=O)[C@@H](C)CN([C@@H](C)CO)C(=O)c2cc(N(C)C)ccc2O1 | 17[16.7 µM] | 0
COc1ccc(S(=O)(=O)N(C)C[C@H]2Oc3ccc(NS(=O)(=O)c4ccc(F)cc4)cc3C(=O)N([C@@H](C)CO)C[C@@H]2C)cc1 | -10[16.7 µM] | -4
O=C(C[C@@H]1CC[C@@H](NC(=O)C2CCOCC2)[C@H](CO)O1)NCC1CCCCC1 | 5[16.7 µM] | -9
[N-]=[N+]=Nc1ccccc1C[C@@]1(C(=O)NCc2ccccc2)N=C(c2ccc(OCCCO)cc2)O[C@@H]1c1ccccc1N=[N+]=[N-] | 59*[16.7 µM] | 10
COC(=O)C[C@@H]1CC[C@@H]2[C@H](COc3ccc(NC(=O)Nc4cccc(Cl)c4)cc3C(=O)N2C)O1 | 40[16.7 µM] | 10

Sorted by length of the SMILES (descending): part of the list above.
SMILES | Env fusion inh | UUG fidelity
Cc1noc(C)c1S(=O)(=O)Nc1ccc2c(c1)C(=O)N([C@H](C)CO)C[C@H](C)[C@H](CN(C)C(=O)c1ccccc1)OCCCC[C@@H](C)O2 | 3[16.7 µM] | 34
COc1ccc(NC(=O)N(C)C[C@@H]2Oc3c(NS(=O)(=O)c4ccc(Cl)cc4)cccc3C(=O)N([C@H](C)CO)C[C@@H]2C)cc1 | -59[16.7 µM] | -4
C[C@@H]1CN([C@@H](C)CO)C(=O)Cc2cc(NC(=O)C3CC3)ccc2O[C@H]1CN(C)Cc1ccc(-c2ccccc2)cc1 | 5[16.7 µM] | 24
COC(=O)C[C@@H]1CC[C@@H]2[C@H](COc3ccc(NC(=O)Nc4cccc(Cl)c4)cc3C(=O)N2C)O1 | 40[16.7 µM] | 10
CCCN1C[C@H](C)[C@@H](OC)CN(C)C(=O)c2ccc(NS(C)(=O)=O)cc2OC[C@H]1C | 5[16.7 µM] | 6

The list continues:
SMILES | Env fusion inh | UUG fidelity
COc1ccc(NC(=O)Nc2cccc3c2O[C@@H](CN(C)S(=O)(=O)c2ccc(Cl)cc2)[C@@H](C)CN([C@@H](C)CO)C3=O)cc1 | 15[16.7 µM] | -17
CCCNC(=O)N(C)C[C@H]1Oc2ncc(C#CCC3CCCC3)cc2C(=O)N([C@@H](C)CO)C[C@@H]1C | 4[16.7 µM] | 10
CC(=O)N[C@@H]1CC[C@H](CCNC(=O)Nc2ccc(C(F)(F)F)cc2)O[C@@H]1CO | -17[16.7 µM] | -6
COc1ccc(S(=O)(=O)N[C@@H]2CC[C@@H](CCNC(=O)c3ccccc3F)O[C@H]2CO)cc1 | 24[16.7 µM] | -3
C[C@H]1CN([C@@H](C)CO)C(=O)Cc2cc(NS(=O)(=O)c3ccc(Cl)cc3)ccc2O[C@@H]1CN(C)S(C)(=O)=O | 3[16.7 µM] | -2
CCNC(=O)C[C@@H]1CC[C@H](NS(=O)(=O)c2ccc(C)cc2)[C@@H](CO)O1 | -29[16.7 µM] | -3
C[C@H]1CCCCO[C@@H](CN(C)C(=O)Nc2ccccc2)[C@@H](C)CN([C@@H](C)CO)C(=O)c2cc(NC(=O)c3ccncc3)ccc2O1 | -12[16.7 µM] | 7
C[C@@H]1CN([C@@H](C)CO)C(=O)c2cc(C#CCN(C)C)cnc2O[C@H]1CN(C)Cc1cccc(F)c1 | 5[16.7 µM] | 5
C[C@@H]1CN([C@@H](C)CO)C(=O)c2cc(-c3cccnc3)cnc2O[C@@H]1CN(C)S(C)(=O)=O | 1[16.7 µM] | 9
C[C@@H]1CN([C@@H](C)CO)C(=O)c2cc(Br)cnc2O[C@@H]1CN(C)Cc1ccccc1 | -7[16.7 µM] | -13
C[C@H](CO)N1C[C@H](C)[C@@H](CN(C)C(=O)CC2CC2)Oc2cc(C#CCN(C)C)ccc2S1(=O)=O | -17[16.7 µM] | 24
CC(C)NC(=O)N[C@@H]1C=C[C@@H](CC(=O)NCCCN(C)C)O[C@H]1CO | 10[16.7 µM] | -9
COc1ccc(CNC(=O)C[C@@H]2C=C[C@@H](NC(=O)Nc3ccc4c(c3)OCO4)[C@H](CO)O2)cc1 | 2[16.7 µM] | -21
C[C@H]1CN([C@@H](C)CO)C(=O)c2cc(N(C)C)ccc2O[C@@H]1CN(C)C(=O)Nc1ccc2c(c1)OCO2 | -19[16.7 µM] | -1
Cc1noc(C)c1NC(=O)Nc1ccc2c(c1)C(=O)N([C@H](C)CO)C[C@@H](C)[C@H](CN(C)Cc1ccc(Cl)c(Cl)c1)O2 | -7[16.7 µM] | -5
Cc1noc(C)c1S(=O)(=O)Nc1ccc2c(c1)CC(=O)N([C@H](C)CO)C[C@@H](C)[C@@H](CN(C)C(=O)Nc1ccc3c(c1)OCO3)O2 | 10[16.7 µM] | -6
CCNC(=O)C[C@@H]1CC[C@@H](NC(=O)C2CCC2)[C@@H](CO)O1 | -2[16.7 µM] | 14
CCCC#Cc1ccc2c(c1)O[C@@H](CN(C)Cc1ccncc1)[C@@H](C)CN([C@@H](C)CO)S2(=O)=O | 30[16.7 µM] | -2
COCC(=O)N(C)C[C@@H]1Oc2cc(-c3cncnc3)ccc2S(=O)(=O)N([C@@H](C)CO)C[C@@H]1C | -2[16.7 µM] | 9
COc1ccc(CN(C)C[C@H]2OCCCC[C@@H](C)Oc3ccc(NS(=O)(=O)c4ccc(C)cc4)cc3C(=O)N([C@H](C)CO)C[C@@H]2C)cc1 | -33[16.7 µM] | -5
COc1ccc(S(=O)(=O)N(C)C[C@H]2OCCCC[C@H](C)Oc3ccc(NC(=O)CCC(F)(F)F)cc3C(=O)N([C@H](C)CO)C[C@@H]2C)cc1 | -60[16.7 µM] | 6
C[C@@H]1CN([C@@H](C)CO)C(=O)c2cccc(NC(=O)C3CCCCC3)c2O[C@H]1CN(C)S(C)(=O)=O | -17[16.7 µM] | 19
COc1ccc(CCN2CC(C(=O)OCC(=O)N(C)Cc3ccccc3)CC2=O)cc1OC (stereo not given) | -21 | -4
CC(C)NC(=O)Nc1cccc2c1O[C@@H](CN(C)C(=O)Nc1ccc(C(F)(F)F)cc1)[C@H](C)CN([C@H](C)CO)C2=O | 12[16.7 µM] | 21
CCNC(=O)C[C@H]1C=C[C@H](NC(=O)C2CCOCC2)[C@@H](CO)O1 | 17[16.7 µM] | 1

Complete entries as entered above.
COc1ccc(NC(=O)N(C)C[C@@H]2Oc3c(NS(=O)(=O)c4ccc(Cl)cc4)cccc3C(=O)N([C@H](C)CO)C[C@@H]2C)cc1 as listed: Env fusion inh: -59[16.7 µM]; UUG fidelity: -4
C[C@H]1CCCCO[C@@H](CN(C)C(=O)Nc2ccccc2)[C@@H](C)CN([C@@H](C)CO)C(=O)c2cc(NC(=O)c3ccncc3)ccc2O1 as listed: Env fusion inh: -12[16.7 µM]; UUG fidelity: 7

Later entries
SMILES | Env fusion inh | UUG fidelity
C[C@@H]1CN([C@@H](C)CO)C(=O)Cc2cc(NC(=O)CCC(F)(F)F)ccc2O[C@H]1CN(C)CC1CC1 | -2[16.7 µM] | 5
C[C@@H]1CCCCO[C@H](CN(C)C(=O)Nc2ccc3c(c2)OCO3)[C@H](C)CN([C@@H](C)CO)C(=O)c2cc(NC(=O)C3CCCCC3)ccc2O1 | -1[16.7 µM] | 9
C[C@H](CO)N1C[C@H](C)[C@H](CN(C)C(=O)Nc2ccccc2)OCCCC[C@H](C)Oc2ccc(NC(=O)C3CCCCC3)cc2C1=O | 2[16.7 µM] | 7
Cc1noc(C)c1S(=O)(=O)Nc1ccc2c(c1)C(=O)N([C@H](C)CO)C[C@@H](C)[C@H](CN(C)S(C)(=O)=O)O2 | 16[16.7 µM] | 0
C[C@H]1CN([C@@H](C)CO)S(=O)(=O)c2ccc(C#Cc3ccccc3)cc2O[C@@H]1CN(C)S(=O)(=O)c1cn(C)cn1 | 16[16.7 µM] | 15
COCC(=O)Nc1ccc2c(c1)C(=O)N(C)C[C@@H](OC)[C@@H](C)CN(C(C)=O)[C@H](C)CO2 | -10[16.7 µM] | 5
C[C@@H]1CCCCO[C@@H](CN(C)Cc2ccc(C(F)(F)F)cc2)[C@H](C)CN([C@H](C)CO)C(=O)c2cc(NC(=O)Cc3ccccc3)ccc2O1 | 23[16.7 µM] | 19
C[C@H](CO)N1C[C@H](C)[C@@H](CN(C)S(=O)(=O)c2ccc(F)cc2)OCCCC[C@H](C)Oc2ccc(N(C)C)cc2C1=O | -5[16.7 µM] | 16
CCNC(=O)C[C@H]1CC[C@@H]2[C@H](COc3ccc(NS(=O)(=O)c4ccccc4C)cc3C(=O)N2C)O1 | 7[16.7 µM] | -12
C[C@@H]1CN([C@H](C)CO)C(=O)Cc2cc(NC(=O)Nc3ccc(F)cc3)ccc2O[C@H]1CN(C)C(=O)Nc1ccc2c(c1)OCO2 | -6[16.7 µM] | -4
COc1ccc(S(=O)(=O)N(C)C[C@@H]2OCCCC[C@@H](C)Oc3ccc(NS(=O)(=O)c4ccc(F)cc4)cc3C(=O)N([C@H](C)CO)C[C@H]2C)cc1 | 18[16.7 µM] | -3
CCCNC(=O)C[C@H]1CC[C@@H]2[C@@H](COc3ccc(NS(=O)(=O)CC)cc3C(=O)N2C)O1 | -11[16.7 µM] | -2
COc1ccc(NC(=O)Nc2ccc3c(c2)C(=O)N([C@H](C)CO)C[C@@H](C)[C@H](CN(C)S(=O)(=O)c2cn(C)cn2)OCCCC[C@@H](C)O3)cc1 | -9[16.7 µM] | 10
CNC(=O)C[C@@H]1CC[C@H]2[C@H](COc3ccc(NC(=O)c4ccc(F)cc4)cc3C(=O)N2C)O1 | 8[16.7 µM] | -6
CNC[C@@H]1OCCCC[C@@H](C)Oc2ccc(NS(=O)(=O)c3ccc(C)cc3)cc2C(=O)N([C@@H](C)CO)C[C@H]1C | 6[16.7 µM] | 3
C/C=C/c1ccc([C@H]2[C@@H](C#N)N(C(=O)NC3CCCC3)[C@H]2CO)cc1 | 32[16.7 µM] | -4
CS(=O)(=O)N1[C@@H](C#N)[C@H](c2ccccc2)[C@@H]1CO | -7[16.7 µM] | 3
C[C@@H]1CN([C@@H](C)CO)C(=O)c2cc(/C=C/c3ccccc3)cnc2O[C@@H]1CN(C)S(=O)(=O)c1cn(C)cn1 | 3[16.7 µM] | -5
